# Yeast UUG start – alters start codon recognition fidelity in yeast; S. cerevisiae UUG-firefly luciferase reporter, luminescence/redox ratio; hit rate 0.13% among 350,000; activity score, % at 18.7 µM;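 active means replicate mean at a twofold rise or more, about +100% in these data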;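 further: firefly luciferase made from a UUG start codon reports start codon fidelity; reporter light over untreated wells divided by growth signal over untreated wells; some hits fall short of that in this replicate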
# Active calls of the source: *. The list is partial (hit frequency here may not be typical).
# Sample of the layout:
Molecule	Yeast UUG start
C[C@@H]1CN([C@@H](C)CO)C(=O)Cc2cc(NC(=O)Cc3ccccc3)ccc2O[C@H]1CN(C)Cc1ccncc1	26
O=C(Nc1ccc(F)cc1)N1C[C@@H]2[C@H](c3ccccc31)[C@H](CO)N2C(=O)Cc1cccnc1	-12

# The whole of this part, from the first entry:
Molecule	Yeast UUG start
C[C@@H]1CN([C@@H](C)CO)C(=O)Cc2cc(NC(=O)Cc3ccccc3)ccc2O[C@H]1CN(C)Cc1ccncc1	26
O=C(Nc1ccc(F)cc1)N1C[C@@H]2[C@H](c3ccccc31)[C@H](CO)N2C(=O)Cc1cccnc1	-12
Cc1ccc(S(=O)(=O)Nc2cccc3c2O[C@H](CN(C)C(=O)NC(C)C)[C@H](C)CN([C@H](C)CO)C3=O)cc1	13
C[C@@H]1CN([C@H](C)CO)C(=O)c2cc(NC(=O)CCCN(C)C)ccc2O[C@H]1CN(C)C(=O)Nc1ccccc1	5
O=C(C[C@H]1C[C@H]2c3cc(NC(=O)NC4CCCC4)ccc3O[C@H]2[C@@H](CO)O1)NCc1ccc(Cl)cc1	-13
CCCC#Cc1ccc([C@H]2[C@H]3CN(Cc4cccnc4)CCCCN3[C@H]2CO)cc1	-10
CCCC(=O)Nc1ccc2c(c1)C(=O)N(C)C[C@H](OC)[C@@H](C)CN(S(=O)(=O)c1cn(C)cn1)[C@@H](C)CO2	-11
CN1CCN(C(=O)C[C@@H]2CC[C@H]3[C@@H](COC[C@H](O)CN3C(=O)Nc3cc(Cl)cc(Cl)c3)O2)CC1	-1
O=C(C[C@H]1CC[C@@H]2[C@H](COC[C@H](O)CN2C(=O)Nc2ccccc2)O1)NC1Cc2ccccc2C1	16
COc1ccc(CN2C[C@@H](O)COC[C@@H]3O[C@H](CC(=O)N4CCc5ccccc5C4)CC[C@H]32)cc1	-1
O=C(Nc1cc(F)ccc1F)N1CCCCN2[C@H](CO)[C@@H](c3ccc(-c4ccncc4)cc3)[C@H]2C1	-3
CO[C@H]1CN(C)C(=O)c2cc(NS(=O)(=O)CC(F)(F)F)ccc2OC[C@@H](C)N(C(=O)c2ccc3c(c2)OCO3)C[C@H]1C	9
CO[C@@H]1CN(C)C(=O)c2cc(NC(C)=O)ccc2OC[C@@H](C)N(C(=O)Cc2ccccn2)C[C@H]1C	-3
Cc1ccc(S(=O)(=O)Nc2ccc3c(c2)CC(=O)N([C@@H](C)CO)C[C@H](C)[C@@H](CN(C)CC2CCCCC2)O3)cc1	-4
C[C@H](CO)N1C[C@H](C)[C@H](CN(C)Cc2ccc(Oc3ccccc3)cc2)Oc2ccc(NC(=O)CCN3CCOCC3)cc2C1=O	-1
COc1ccc(S(=O)(=O)Nc2ccc3c(c2)CC(=O)N([C@H](C)CO)C[C@H](C)[C@@H](CN(C)C)O3)cc1	1
Cc1noc(C)c1NC(=O)N(C)C[C@H]1Oc2c(NC(=O)c3cnccn3)cccc2C(=O)N([C@H](C)CO)C[C@H]1C	8
C/C=C/c1ccc([C@@H]2[C@@H](CO)N(C(=O)NC(C)C)[C@H]2CN(C)C(C)=O)cc1	-2
CC(C)NC(=O)Nc1ccc2c(c1)C(=O)N([C@@H](C)CO)C[C@H](C)[C@@H](CN(C)S(=O)(=O)c1ccccc1)O2	-4
COc1cccc(-c2ccc3n(c2=O)C[C@H]2[C@H](CO)[C@@H](C(=O)NC4CCC4)N[C@@H]32)c1	35
C[C@@H](O)C#Cc1ccc([C@@H]2[C@H]3CN(C(=O)c4ccncc4)CCCCN3[C@H]2CO)cc1	-4
CCC(=O)N1[C@H](CN(C(C)C)S(C)(=O)=O)[C@@H](c2ccccc2)[C@@H]1CO	18
CC(C)C#Cc1ccc([C@H]2[C@@H](CO)N3CCCCN(C(=O)c4ccc5c(c4)OCO5)C[C@@H]23)cc1	12
C[C@@H]1CN([C@@H](C)CO)C(=O)c2cc(NS(=O)(=O)c3ccccc3)ccc2O[C@@H]1CN(C)Cc1ccc(Cl)c(Cl)c1	14
COCC(=O)Nc1ccc2c(c1)C(=O)N(C)C[C@@H](OC)[C@@H](C)CN(CC1CCCCC1)[C@H](C)CO2	-5
O=C(C[C@@H]1CC[C@@H]2[C@H](COC[C@H](O)CN2C(=O)Nc2ccccc2)O1)NCCCN1CCOCC1	6
COc1ccc(NC(=O)N2CCCCN3[C@H](CO)[C@@H](c4ccc(-c5ccccc5F)cc4)[C@H]3C2)cc1	3
CCC(=O)N1[C@@H](CO)[C@@H]2c3ccccc3N(S(=O)(=O)c3ccc(F)cc3)C[C@@H]21	0
O=S(=O)(c1ccc(F)cc1)N1CCCCN2[C@H](CO)[C@@H](c3ccc(C#CC4CC4)cc3)[C@H]2C1	3
O=C(NCc1ccccc1)[C@H]1[C@H](CO)[C@H]2Cn3c(cccc3=O)[C@@H]1N2C(=O)Cc1ccccn1	-3
Cc1ccccc1S(=O)(=O)N1CCCCN2[C@H](C1)[C@H](c1ccc(-c3ccccc3)cc1)[C@@H]2CO	-5
CO[C@H]1CN(C)C(=O)c2cc(NC(=O)C3CC3)ccc2OC[C@@H](C)N(CC2CCCC2)C[C@@H]1C	-10
C[C@H](CO)N1C[C@H](C)[C@H](CN(C)S(=O)(=O)c2ccccc2)Oc2ccc(NC(=O)CCC(F)(F)F)cc2C1=O	18
O=C(Cc1ccccc1)N1C[C@@H]2[C@H](c3ccccc31)[C@H](CO)N2C(=O)C1CCCC1	19
COc1cccc(CN2CCCCN3[C@@H](CO)[C@H](c4ccc(C#Cc5cccnc5)cc4)[C@@H]3C2)c1	1
C[C@H](CO)N1C[C@H](C)[C@@H](CN(C)Cc2ccc(C(=O)O)cc2)Oc2ccc(NS(=O)(=O)c3ccc(Cl)cc3)cc2C1=O	0
CC(=O)N1[C@H](CO)[C@H](c2ccccc2)[C@H]1CN(CC1CCC1)C(=O)CN(C)C	-2
CC(=O)N1[C@@H](CO)[C@H](c2ccc(-c3ccc(F)cc3)cc2)[C@@H]1CNC(=O)C1CC1	3
O=C(Cc1cccnc1)N1[C@H](CO)[C@H](c2ccccc2)[C@@H]1CNCC1CCC1	-2
CO[C@H]1CN(C)C(=O)c2ccc(NC(=O)c3cc(C)on3)cc2OC[C@H](C)NC[C@H]1C	-8
C[C@@H]1CN([C@@H](C)CO)C(=O)c2cc(NC(=O)CCN3CCOCC3)ccc2O[C@@H]1CN(C)C	-10
CC(C)NC(=O)N(C)C[C@@H]1Oc2ccc(NC(=O)Nc3ccccc3)cc2CC(=O)N([C@H](C)CO)C[C@H]1C	-1
C[C@H](CO)N1C[C@H](C)[C@H](CN(C)CC2CCCCC2)Oc2ccc(NC(=O)Nc3ccc(C(F)(F)F)cc3)cc2C1=O	1
Cc1cc(C(=O)Nc2cccc3c2O[C@H](CN(C)C(=O)NC(C)C)[C@@H](C)CN([C@@H](C)CO)C3=O)n(C)n1	23
O=C(C[C@H]1CC[C@@H]2[C@H](COC[C@@H](O)CN2C(=O)Nc2ccc(C(F)(F)F)cc2)O1)NCCc1ccncc1	-8
Cc1noc(C)c1NC(=O)Nc1cccc2c1O[C@@H](CN(C)Cc1ccc(C(=O)O)cc1)[C@H](C)CN([C@@H](C)CO)C2=O	-3
C[C@@H]1CN([C@@H](C)CO)C(=O)c2cccc(NC(=O)C3CCOCC3)c2O[C@H]1CN(C)S(=O)(=O)c1cn(C)cn1	-6
CN1c2ccc(C#Cc3cccnc3)cc2[C@@H]2[C@@H](CCN2S(=O)(=O)c2ccc(F)cc2)[C@H]1CO	-10
O=C(c1ccccc1F)N1CC[C@@H]2[C@H]1c1cc(C#Cc3ccc(F)cc3)ccc1N[C@@H]2CO	-14
Cc1noc(C)c1NC(=O)Nc1cccc2c1O[C@H](CN(C)S(=O)(=O)c1cccs1)[C@@H](C)CN([C@@H](C)CO)C2=O	-2

# Later entries
Molecule	Yeast UUG start
C[C@@H]1CN([C@H](C)CO)C(=O)c2cccc(NC(=O)c3ccc(-c4nccs4)cc3)c2O[C@H]1CN(C)Cc1ccc(Oc2ccccc2)cc1	-6
C[C@@H]1CN([C@H](C)CO)C(=O)c2cc(NC(=O)c3ccncc3)ccc2O[C@@H]1CN(C)Cc1ccc(-c2ccccc2)cc1	21
O=C(c1cccnc1)N1C[C@@H]2[C@H](c3ccccc31)[C@@H](CO)N2C(=O)C1CCCCC1	-10
O=S(=O)(c1cccs1)N1CCCCN2[C@H](CO)[C@@H](c3ccc(Br)cc3)[C@H]2C1	2
CO[C@@H]1CN(C)C(=O)c2cc(NC(C)=O)ccc2OC[C@H](C)N(Cc2ccc(F)cc2)C[C@@H]1C	3
COCCN(C[C@@H]1[C@@H](c2ccccc2)[C@H](CO)N1C(=O)C1CC1)C(C)=O	-6
CCCC#Cc1ccc([C@@H]2[C@H]3CN(CCC)CCCCN3[C@H]2CO)cc1	15
COc1ccc(S(=O)(=O)Nc2cccc3c2O[C@@H](CN(C)CC2CC2)[C@H](C)CN([C@H](C)CO)C3=O)cc1	-6
C[C@H]1CN([C@@H](C)CO)C(=O)c2cccc(NC(=O)C3CCCCC3)c2O[C@H]1CN(C)Cc1ccncc1	-16
Cc1cccc(-c2ccc([C@@H]3[C@H](CO)N4CCCCN(C(=O)c5cccnc5)C[C@@H]34)cc2)c1	-1
C[C@@H]1CN([C@@H](C)CO)C(=O)c2cc(NS(=O)(=O)c3cccs3)ccc2O[C@@H]1CN(C)C(=O)Nc1ccc2c(c1)OCO2	3
CCNC(=O)[C@H]1[C@H](CO)[C@H]2Cn3c(ccc(C4=CCCC4)c3=O)[C@@H]1N2Cc1ccncc1	4
CC(=O)N1CCCCN2[C@@H](CO)[C@@H](c3ccc(-c4ccncc4)cc3)[C@@H]2C1	-1
CC[C@@H](NC(=O)Cn1cc(C)c(=O)[nH]c1=O)c1ccccc1	3
COCCN(C[C@@H]1[C@@H](c2ccccc2)[C@@H](CO)N1C(C)=O)C(=O)c1cccnc1	24
CC(C)NC(=O)Nc1cccc2c1O[C@@H](CN(C)C(=O)Nc1ccc(F)cc1)[C@@H](C)CN([C@@H](C)CO)C2=O	22
C[C@H](CO)N1C[C@H](C)[C@H](CN(C)S(C)(=O)=O)Oc2ccc(NC(=O)Nc3ccc(C(F)(F)F)cc3)cc2C1=O	10
C[C@@H]1CN([C@H](C)CO)C(=O)c2cc(NS(=O)(=O)c3cn(C)cn3)ccc2O[C@@H]1CN(C)S(=O)(=O)c1cccs1	14
O=C(C1CCCC1)N1CCCCN2[C@H](CO)[C@H](c3ccc(C4=CCCC4)cc3)[C@@H]2C1	-1
COc1ccc(S(=O)(=O)Nc2ccc3c(c2)[C@H]2C[C@@H](CC(=O)O)O[C@H](CO)[C@H]2O3)cc1	-1
CO[C@H]1CN(C)C(=O)c2ccc(NS(=O)(=O)c3ccccc3)cc2OC[C@H](C)NC[C@H]1C	-3
C[C@@H]1CN([C@H](C)CO)C(=O)c2cc(NC(=O)NC3CCCCC3)ccc2O[C@H]1CN(C)CC1CCCCC1	-4
CCC(=O)NC[C@H]1[C@@H](c2ccc(C3=CCCC3)cc2)[C@@H](CO)N1C(C)=O	31
COc1ccc(S(=O)(=O)N(C)C[C@H]2OCc3ccccc3-c3ccccc3C(=O)N([C@H](C)CO)C[C@@H]2C)cc1	9
CCS(=O)(=O)N1CCCCN2[C@H](C1)[C@@H](c1ccc(-c3ccc(C#N)cc3)cc1)[C@@H]2CO	20
O=C(C[C@@H]1CC[C@H]2[C@@H](COC[C@@H](O)CN2C(=O)Nc2ccc(Cl)c(Cl)c2)O1)NCc1ccc(F)cc1	10
COCC(=O)N1[C@H](CO)[C@@H]2c3ccccc3N(C(=O)C3CC3)C[C@@H]21	0
Cc1ccc(S(=O)(=O)N(C)C[C@@H]2Oc3ccc(NC(=O)Nc4ccc(C(F)(F)F)cc4)cc3C(=O)N([C@@H](C)CO)C[C@H]2C)cc1	-8
C[C@H](CO)N1C[C@H](C)[C@@H](CN(C)Cc2ccc(C(=O)O)cc2)Oc2ccc(NC(=O)c3ccncc3)cc2C1=O	-15
O=C(C[C@H]1CC[C@@H]2[C@H](COC[C@H](O)CN2Cc2cccc(-c3ccncc3)c2)O1)N1CCCCC1	14

# Reprinted at random: five records from the list.
Molecule	Yeast UUG start
C[C@H](CO)N1C[C@H](C)[C@@H](CN(C)Cc2ccc(C(=O)O)cc2)Oc2ccc(NC(=O)c3ccncc3)cc2C1=O	-15
COc1ccc(S(=O)(=O)N(C)C[C@H]2OCc3ccccc3-c3ccccc3C(=O)N([C@H](C)CO)C[C@@H]2C)cc1	9
COCC(=O)N1[C@H](CO)[C@@H]2c3ccccc3N(C(=O)C3CC3)C[C@@H]21	0
C[C@@H]1CN([C@H](C)CO)C(=O)c2cc(NC(=O)NC3CCCCC3)ccc2O[C@H]1CN(C)CC1CCCCC1	-4
CO[C@H]1CN(C)C(=O)c2ccc(NS(=O)(=O)c3ccccc3)cc2OC[C@H](C)NC[C@H]1C	-3

# Continuation.
Molecule	Yeast UUG start
C[C@H](CO)N1C[C@H](C)[C@H](CN(C)S(=O)(=O)c2ccc(Cl)cc2)Oc2ccc(NC(=O)CCC(F)(F)F)cc2C1=O	10
C[C@H]1CN([C@@H](C)CO)C(=O)c2cc(NC(=O)CCN3CCOCC3)ccc2O[C@@H]1CN(C)S(=O)(=O)c1ccccc1	-2
Cc1ccc(-c2ccc([C@H]3[C@H]4CN(C(=O)c5ccc(F)cc5)CCCCN4[C@H]3CO)cc2)cc1	-2
CCN(C[C@H]1N[C@@H](CO)[C@H]1c1ccc(C2=CCCC2)cc1)C(=O)c1ccccc1	-6
CO[C@H]1CN(C)C(=O)c2cc(NC(=O)C3CC3)ccc2OC[C@@H](C)N(C)C[C@@H]1C	-2
O=C(c1cccc(F)c1)N1C[C@H]2[C@@H](c3ccccc31)[C@@H](CO)N2C(=O)c1ccc(F)cc1	13
CO[C@@H]1CN(C)C(=O)c2cc(NC(C)=O)ccc2OC[C@@H](C)N(C(=O)Cc2ccccn2)C[C@@H]1C	-5

# Source: PubChem BioAssay
